From PubChem
2A StopGo: FMDV 2A StopGo reporter, luciferase signal. human cells with a luciferase reporter of 2A StopGo recoding; control for the full effect not named in the record. Potency, µM (doses to about 57.9 µM), inactives show at the top dose signal change, negative = less light. actives 1.2% (n = 410,000). AID 1159524; active = well fitted falling curve with a large enough effect; inconclusive = small, poorly fitted or top-dose-only effect; inactive = no such curve, though single readings can be large or run the other way; tested in HEK293T cells; note: % is set by controls: 0 for no effect and ±100 for the full control effect; nearly all actives have a fitted effect of over 45% in size; luciferase light after 4 h
NS1 inh: influenza NS1 inhibition; S. cerevisiae slowed by influenza A NS1, growth recovery by OD600; Potency, µM (titrated, usually from 46.1 µM), for the others: top-dose activity, positive = more growth; actives 0.4% (n = 270,000); AID 2326; note: actives are rising curves; nearly all actives have a fitted effect of over 50% in size
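Compounds were scored for reversing the slow growth caused by influenza A NS1 in S. cerevisiae, measured by optical density at 600 nm. Assay medium contained 2% galactose at pH 6.0; NS1-free yeast of the same strain were the positive control.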
Marburg entry inh: blocks Marburg virus binding to or entry into cells. Marburg virus pseudotyped entry inhibition, cell reporter; control for the full effect not named in the record; about a third of the inactives were read at about 46 µM. AID 540276. Potency, µM (top dose mostly 37.8 µM), inactives show at the highest dose activity change, negative = inhibition, hits mostly inhibitors. actives 1.8% (n = 300,000); active = well fitted inhibition curve with a large enough effect; inconclusive = small, poorly fitted or top-dose-only effect, or effect the other way; inactive = flat fitted curve, though single readings scatter; tested in HEK293 cells; about a fifth of its hits are not listed in these tables; note: % is set by controls: 0 for no effect and ±100 for the full control effect; luciferase read-out
SARS PLpro yeast: SARS-CoV PLP inhibition in yeast; S. cerevisiae expressing SARS-CoV PLpro, growth rescue; control for the full effect not named in the record; Potency, µM (top dose mostly 32.9 µM), inactives show top-dose activity, positive = growth rescue; actives 0.19% (n = 330,000); AID 485353; note: 0% is about no effect; nearly all actives have a fitted effect of over 55% in size; growth read by luminescence after 48 h
RE007 growth inh: less growth of the S. pombe RE007 Vpr strain | actives 0.21% (n = 360,000) | Potency, µM (highest dose often 92.2 µM), for inactives: top-dose activity change, negative = less growth | AID 651644 | S. pombe RE007 Vpr strain, BacTiter-Glo ATP luminescence, 24 h; control for the full effect not named in the record; active = well fitted falling curve with a large enough effect; inconclusive = small, poorly fitted or top-dose-only effect; inactive = no such curve, though single readings can be large or run the other way;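 note: % is set by controls: 0 for no effect and ±100 for the full control effect; nearly all actives have a fitted effect of over 50% in size; the assay follows cell death caused by Vpr and the record does not say whether a fall means rescue or toxicity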
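Fission yeast RE007 carrying one integrated HIV-1 vpr copy, seeded at OD 0.01 in PMG+AL medium with 23 nL pinned compound. Grown 24 h at 30 degrees; viability read by BacTiter-Glo luminescence after 5 min.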
Lassa entry inh: inhibitors of Lassa virus binding or cell entry. actives 1.2% (n = 300,000). AID 540256. Potency, µM (highest dose often 37.9 µM), for inactives: at the highest dose activity change, negative = inhibition, usual class: inhibitors. Lassa virus pseudotype entry inhibition, cell reporter; control for the full effect not named in the record; active means well fitted inhibition curve with a large enough effect; inconclusive means small, poorly fitted or top-dose-only effect, or effect the other way; inactive means flat fitted curve, though single readings scatter; tested in HEK293 cells; note: % is set by controls: 0 for no effect and ±100 for the full control effect; nearly all actives have a fitted effect of over 50% in size; luciferase read-out
Cruzain inh Det: inhibitors of Trypanosoma cruzi cruzain with detergent; AID 1478; actives 0.43% (n = 200,000); Potency, µM, inactives show max response, negative = inhibition, actives largely listed as inhibitors; purified cruzain, Z-FR-AMC fluorescence, 0.01% Triton; P25779; active = well fitted curve in the direction sought with a large enough effect; inconclusive = small, poorly fitted or top-dose-only effect, or another doubt; inactive = no such curve, though single readings can be large; an effect the other way counts as inactive or inconclusive;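 note: plate controls were neutral wells for no effect and buffer without enzyme for full effect; nearly all actives have a fitted effect of over 40% in size; top concentration of the series not given in the record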
Target sequence (P25779 123-467 limits assumed): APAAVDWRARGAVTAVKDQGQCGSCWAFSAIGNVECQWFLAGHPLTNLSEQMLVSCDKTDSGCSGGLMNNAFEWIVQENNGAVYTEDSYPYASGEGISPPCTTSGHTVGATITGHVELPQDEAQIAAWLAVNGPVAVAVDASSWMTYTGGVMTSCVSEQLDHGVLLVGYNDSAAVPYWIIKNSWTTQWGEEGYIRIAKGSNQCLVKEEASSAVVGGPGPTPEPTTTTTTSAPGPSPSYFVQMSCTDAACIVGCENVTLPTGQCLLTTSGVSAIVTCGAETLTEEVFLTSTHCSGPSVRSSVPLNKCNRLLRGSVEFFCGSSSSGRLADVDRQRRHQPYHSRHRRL
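Enzyme 1.5 nM, Z-FR-AMC 2 uM, NaOAc 100 mM pH 5.5, DTT 5 mM, Triton X-100 0.01%; 15 min RT compound preincubation; kinetic ex360/em450, 60 s delta.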
Cruzain noTriton: inhibitors of Trypanosoma cruzi cruzain without detergent; P25779; purified cruzain, Z-FR-AMC fluorescence, no detergent; Potency, µM, for the others: max response, negative = inhibition, actives largely listed as inhibitors; actives 2.3% (n = 200,000); AID 1476; active = well fitted curve in the direction sought with a large enough effect; inconclusive = small, poorly fitted or top-dose-only effect, or another doubt; inactive = no such curve, though single readings can be large; an effect the other way counts as inactive or inconclusive;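 note: plate controls were enzyme without inhibitor for no effect and buffer without enzyme for full effect; nearly all actives have a fitted effect of over 40% in size; top concentration of the series not given in the record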
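Detergent-free condition (0.00005% Triton X-100) in acetate buffer pH 5.5 with DTT. 1.5 nM enzyme and compound were pre-mixed 15 min, then 2 uM Z-FR-AMC substrate added; reaction progress from fluorescence change between first and third reads (60 s).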
The depositor's hits bear a star; ? = inconclusive; . = no result given; & = joins results of further samples; [ ] = dose if it differs, or a comment. Unless noted, calls come from the whole dose curve; as a rule, active means well fitted rising curve with a large enough effect; inconclusive means small, poorly fitted or top-dose-only effect; inactive means no such curve, though single readings can be large or run the other way. Potency is the fitted concentration of half-maximal effect. Compounds were not picked by outcome, and some 4.6% of all compounds hit somewhere here.

SMILES	2A StopGo	NS1 inh	Marburg entry inh	SARS PLpro yeast	RE007 growth inh	Lassa entry inh	Cruzain inh Det	Cruzain noTriton
Cc1ccc(C(=O)C(C)OC(=O)CN2C(=O)NC3(CCCC3)C2=O)cc1 (stereo not given)	-4%	.	18%[46.1 µM]	5%	-2%	-3%	.	.
CCN(Cc1ccccc1)C(=O)C(CC(C)C)NS(=O)(=O)c1ccc2c(c1)CCN2C(C)=O (stereo not given)	-8%	.	15%[46.1 µM]	.	.	?	-6.9%	27%
CCCCN(CCCC)C1=C(C(=O)c2ccccc2)N(CC)S(=O)(=O)c2ccccc21	-29%	.	1%[46.1 µM]	.	.	-20%[46.1 µM]	-10%	-12%
O=C(N=Nc1c(O)[nH]c2ccc([N+](=O)[O-])cc12)c1ccccc1Cl	16%	-3%	.	0%	1%	.	.	.
COC(=O)c1ccc(OCC(O)CN2C(=O)NC(C)(C)C2=O)cc1 (stereo not given)	-29%	-2%	12%	5%	1%	19%	2.6%	-5%
O=C(COc1ccc(Cl)cc1)NCC(c1ccco1)S(=O)(=O)c1ccc(Cl)cc1 (stereo not given)	-18%	.	.	.	.	-26%[46.1 µM]	-6.8%	-10%
Cc1nc2ccc(N3C(=O)CCC3=O)cc2[nH]1	?	-1%	3%	2%	-10%	-1%	-5.1%	2%
COc1cc(CC(=O)OCC(=O)NC2CCCCC2)cc(OC)c1OC	-10%	.	22%	1%	5%	13%	.	.
CCN(CC)CCNC(=O)c1ccc2c(=O)n3nc(Nc4ccccc4)sc3nc2c1	-8%	.	.	.	.	15%[46.1 µM]	-1.9%	-16%
CCS(=O)(=O)N1CCc2cc(C(=O)Nc3ccc(OC)cc3OC)ccc21	-28%	.	?	.	.	7%[46.1 µM]	-5.7%	2%
CCOC(=O)NC(=O)CSc1nc2ccc(OCC)cc2[nH]1	27%	0%	-2%[46.1 µM]	0%	44%	-13%	-0.1%	0%
COc1cccc(OC)c1/C(O)=C(\C#N)c1nc2ccccc2[nH]1	.	2%	-22%	2%	11%	4%	0.3%	-4%
Cc1nc(SCC(=O)c2c(C)[nH]c3ccccc23)c2c(=O)n(C)c(=O)n(CC(C)C)c2n1	.	?	1%	7%	.	.	-6.8%	?
CC(=O)C1=C(O)C(=O)N(CCC(=O)O)C1c1ccccc1[N+](=O)[O-] (stereo not given)	-8%	7%	6%[46.1 µM]	-2%	5%	2%[46.1 µM]	.	.
Cc1ccc(C)c(NC(=O)c2ccc3c(c2)CCCN3S(C)(=O)=O)c1	23%	.	?	.	.	23%[46.1 µM]	0.9%	5%
O=[N+]([O-])c1cc(-c2n[nH]c(-c3ccccc3)n2)cc([N+](=O)[O-])c1	.	1%	?	-4%	-6%	11%	-2.6%	-8%
COC(=O)C(=Cc1ccc(OCc2ccc([N+](=O)[O-])cc2)c(OC)c1)C(=O)OC	?	-1%	?	-4%	-13%	?	8.2%	6%
CCC(CO)(C(=O)OC1C[N+]2(C)CCC1CC2)c1ccccc1 (stereo not given)	16%	.	?	3%	1%	0%	.	.
N#Cc1cc(N)c(Nc2ccccc2)cc1C#N	?	-10%	-16%	4%	-28%	-14%	-9.5%	-4%
COc1ccc(/C=N\NC(=O)CNC(=O)C(c2ccccc2)c2ccccc2)cc1[N+](=O)[O-]	12%	-8%	-39%	4%	-5%	1%	-2.9%	11%
CN(c1ccccc1)S(=O)(=O)c1ccc(C(=O)Nc2ncccc2O)cc1	-23%	.	?	-11%	-16%	?	.	.
CCOC(=O)C1=NOC(CNC(=O)c2c(-c3ccccc3Cl)noc2C)C1 (stereo not given)	9%	0%	?	5%	12%	6%	3.4%	4%
Cc1c(Cl)cccc1NC(=O)c1cc2nc(-c3ccc4c(c3)OCO4)cc(C(F)(F)F)n2n1	-8%	.	.	.	.	6%[46.1 µM]	-1.1%	-4%
Cc1ccc(OCCCCN2CCCCC2)cc1	-5%	10%	.	1%	-5%	.	.	.
COc1ccccc1Nc1nnc(SCc2cc(=O)n3cc(C)ccc3n2)s1	-29%	-7%	-17%	0%	-18%	?	-11%	10%
Cc1ccc(-c2cc(C(=O)N3CCCCCC3)no2)cc1	65%[activator]	8%	?	0%	-27%	?	.	.
CCCN1Cc2cccc(C(=O)Nc3ccc(CN4CCCC4)cc3)c2C1=O	-13%	-3%	?	-8%	-19%	?	-2.3%	-1%
O=C(CCCc1ccccc1)Nc1ccc(Br)cc1F	28%	-9%	13%	-2%	-10%	-21%	.	.
CNC(=O)NC(=O)CSc1nc(-c2cccs2)c(C#N)c(=O)[nH]1	-4%	-2%	7%[46.1 µM]	1%	3%	2%[46.1 µM]	.	.
Cc1ccc(C2c3sc(=O)[nH]c3SC3C(=O)NC(=O)C32)cc1 (stereo not given)	-1%	5%	16%	8%	0%	4%	-0.9%	10%
O=C(CCn1ccc2cc(S(=O)(=O)N3CCCC3)ccc21)NCc1cccc(Br)c1	-1%	.	.	.	.	?	-4.9%	-4%
COc1ccc(C(=O)NC(C)c2nc3ccccc3[nH]2)cc1OC (stereo not given)	-21%	0%	-17%	-24%	8%	7%	-3.6%	0%
COc1cc(OC)cc(C(=O)NCCCn2ccnc2)c1	1%	20%	?	5%	-24%	10%[46.1 µM]	.	.
CC(C)CC(=O)O/N=C1\C(=O)N(Cc2ccc(Cl)cc2)c2ccc([N+](=O)[O-])cc21	.	-7%	-1%	-41%	.	.	-12%	0%
Cc1noc(C)c1CSCC(=O)N1CCN(c2ccc(F)cc2)CC1	?	-73%	?	-1%	-14%	-15%	0.9%	4%
O=C(NC1=NCCS1)c1sc2ccccc2c1Cl	29%	-5%	?	-26%	?	?	-11%	?
NC(=O)CC(NC(=O)c1ccccc1)c1ccc(N2CCN(c3ccccc3)CC2)c([N+](=O)[O-])c1 (stereo not given)	?	21%	.	-14%	-2%	.	.	.
CN1CCN(S(=O)(=O)c2cccc(C(=O)N(c3ccccn3)C3CCCCC3)c2)CC1	-1%	-8%	-10%&-10%	3%	17%	5%	0.2%	-1%
COC(=O)c1ccc(C(C2C(=O)CC(C)(C)CC2=O)C2C(=O)CC(C)(C)CC2=O)cc1	34%[activator]	13%	2%	2%	-10%	0%	.	.
C/C(CC(=O)NCc1ccco1)=N\NC(=O)Cc1ccccc1	-15%	-9%	-18%	0%	2%	2%	4.3%	2%
O=C(NCCCN1CCc2ccccc2C1)Nc1ccc(Br)cc1	12%	-2%	-14%	3%	-12%	8%	-23%	-25%
Cc1ccc(C)c2[nH]c(=O)c(CN(CCN3CCCC3)C(=O)Nc3ccc(F)cc3)cc12	-17%	6%	?	0%	-10%	-25%	-0.5%	?
Cc1ccc(S(=O)(=O)c2nnn3c2nc(NCCCN2CCCC2=O)c2ccccc23)cc1C	?	-17%	?	8%	14%	?	.	.
NC(=O)c1ccc(NC(=O)Cn2c(=O)n(-c3ccccc3)c(=O)c3oc4ccccc4c32)cc1	-2%	.	12%[46.1 µM]	6%	8%	7%	.	.
CCC(C)Sc1nc2c([nH]c3ccccc32)c(=O)n1C (stereo not given)	-12%&-10%	-77%	.	2%	-11%	2%[46.1 µM]	-4.8%&-1.0%	12%&0%
O=C(Cn1nnc(-c2cccc(C(F)(F)F)c2)n1)NCc1ccc(F)cc1	-24%	.	11%[46.1 µM]	.	.	26%[46.1 µM]	-0.6%	-7%
O=C(C1CCN(S(=O)(=O)c2ccc(Br)s2)CC1)N1CCN(c2cccc(C(F)(F)F)c2)CC1	?	.	?	.	.	8.9µM*	-7.6%	12%
Cc1c(C(=O)OCC(=O)Nc2c(C)n(C)n(-c3ccccc3)c2=O)oc2ccccc12	-2%	-2%	25%[46.1 µM]	0%	-2%	-8%	.	.
CCc1ccc(NC(=S)N(CCN2CCOCC2)Cc2ccccc2F)cc1	15%	.	?	1%	21%	?	.	.
Cc1cc(C)n(S(=O)(=O)/C=C/c2ccccc2)n1	-28%	-49%	5.2µM*	0%	13%	?	-0.9%	6%
CCn1c(COc2ccccc2C)nnc1SCC(=O)NCc1ccccc1	-20%	-17%	-17%	-8%	2%	-20%	2.8%	0%
CN(CCO)S(=O)(=O)c1ccc2c(c1)C(=NN)c1cc(S(=O)(=O)N(C)CCO)ccc1-2	-12%	4%	.	0%	-7%	.	.	.
CCOc1cc(-c2nc3ccccn3c2NCC2CCCO2)ccc1O (stereo not given)	-14%	-10%	1%&-35%	1%	26%[3.69 µM]	-17%	-4.5%	5%
COc1ccc(-n2c(SCC(=O)Nc3ccccc3)nc3c(c2=O)SCC3)cc1	-18%	5%	2%	12%	7%	.	-2.4%	-3%
Cc1nn(CCOc2cccc(Br)c2)c(C)c1[N+](=O)[O-]	-4%	.	7%[46.1 µM]	-2%	1%	5%	.	.
Cc1ccc(-c2nn(-c3cccc(F)c3)cc2CNCCc2ccncc2)o1	-6%	-1%	?	-2%	-17%	2%	.	.
O=C(Nc1ccc(C(=O)OCc2cc(=O)n3c4c(sc3n2)CCCC4)cc1)c1ccccc1	-8%	.	.	.	.	2%[46.1 µM]	1.0%	-4%
COCCNC(=O)c1cc2oc3ccccc3c2n1C	0%	-47%	22%	-13%	-18%	-5%	-7.8%	1%
Cc1cccc2c(C(=O)Nn3cnnc3)cc(-c3ccccc3Cl)nc12	6%	3%	17%[46.1 µM]	0%	17%	15%	.	.
COc1ccc(S(=O)(=O)N2CCCOC2CNC(=O)C(=O)NCc2ccncc2)cc1 (stereo not given)	-3%	20%	17%	4%	6%	0%	.	.
Cc1cc(S(=O)(=O)Nc2cccc(C(=O)O)c2)c(C)c(S(=O)(=O)c2ccccc2)c1	-4%	.	.	.	.	-10%[46.1 µM]	-3.3%	-10%
